Screens from PubChem BioAssay.
Rango complex inh – prevents formation of the Rango-importin beta complex. Q14974. Rango CFP/YFP FRET sensor + importin beta, 45 min. Potency, µM (titrated, usually from 92.2 µM), inactives show top-dose inhibition of complex formation. actives 0.031% (n = 340,000); active = rising FRET ratio curve, often small or poorly fitted; inconclusive = mostly compound fluorescence or quenching in the first reads; inactive = flat curves in all reads;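 also: potency is read from the fitted curve at half-maximal effect; 0% = DMSO wells and 100% = buffer wells lacking importin beta; nearly all actives have a fitted effect of over 15% in size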
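Inhibition scored from the CFP 486 nm/YFP 530 nm FRET ratio 45 min after adding 0.125 microM importin beta to 50 nM Rango biosensor preincubated 5 min with compound (room temperature, PBS with DTT, Tween-20, BSA). No-importin wells as positive control.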
GLA inh pH 4.5 – blocks human alpha-galactosidase A at pH 4.5; P06280; purified enzyme, 4-MU-alpha-Gal fluorescence, pH 4.5; activity change, negative = inhibition, % at 105 µM; 230,000 tested, under 10 active; AID 1467; inconclusive = small, poorly fitted or top-dose-only inhibition, or a rising curve; inactive = flat fitted curve, though single readings scatter; no compound was filed as active;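 also: 0% = full activity with enzyme and -100% = basal without enzyme; dose as in the result columns while the protocol names 77 µM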
Target sequence (P06280 whole entry, looked up): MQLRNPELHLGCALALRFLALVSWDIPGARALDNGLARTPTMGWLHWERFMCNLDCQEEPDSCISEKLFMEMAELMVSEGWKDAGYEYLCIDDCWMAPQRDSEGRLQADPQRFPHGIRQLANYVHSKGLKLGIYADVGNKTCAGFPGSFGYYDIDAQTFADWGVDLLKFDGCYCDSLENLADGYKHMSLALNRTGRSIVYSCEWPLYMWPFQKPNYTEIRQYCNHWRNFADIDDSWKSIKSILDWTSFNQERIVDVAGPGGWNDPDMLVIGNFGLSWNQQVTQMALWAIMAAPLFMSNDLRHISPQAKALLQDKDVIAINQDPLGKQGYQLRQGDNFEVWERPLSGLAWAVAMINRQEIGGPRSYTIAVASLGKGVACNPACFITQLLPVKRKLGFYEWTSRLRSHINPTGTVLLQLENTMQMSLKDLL
miR-21 reporter – raises the signal of a miR-21 reporter; HeLa miR-21 FLuc reporter, luciferase, 48 h; Potency, µM (top dose mostly 38.3 µM), inactives show at the highest dose reporter change, positive = more light; 340,000 tested, under 10 active; AID 2288; active = well fitted rising curve with a large enough effect; inconclusive = small, poorly fitted or top-dose-only effect; inactive = no such curve, though single readings can be large or run the other way;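 also: % of control where 0% means no effect; miR-21 action dims this reporter so a rising signal means less miR-21 action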
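Compounds were titrated across several concentrations (up to approximately 40 uM) and incubated 48 hours with HeLa miR-21-FLuc reporter cells (miR-21 target sequence downstream of FLuc, endogenous miR-21). Readout was firefly luciferase luminescence after lytic detection reagent.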
Rango dissoc inh – inhibition of RanGTP-driven Rango-importin beta dissociation. O95149+P62826. Biochemical FRET Rango-importin beta, RanGTP-induced dissociation. Potency, µM (highest dose often 46.1 µM), for the others: top-dose activity change, negative = inhibition. actives 0.071% (n = 340,000); active means falling FRET ratio curve, often poorly fitted, with flat reads before Ran was added; inconclusive means other falling curves, or compound fluorescence or quenching; inactive means flat or rising ratio curve;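 also: potency is read from the fitted curve at half-maximal effect; % of control where 0% means no effect; nearly all actives have a fitted effect of over 45% in size; -100% = wells without RanGTP and RCC1; the record marks most hits as doubtful in a second field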
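Compounds preincubate 5 min with complex of recombinant Rango and importin beta in PBS with 1 mM DTT. Ran (0.6 uM) loaded with 2 mM GTP plus 0.2 uM RCC1 starts dissociation; FRET is recorded 45 min later.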
* = called active by the depositor; ? = inconclusive; / = not tested or not shown; & = joins results of further samples. This is a subset, so the mix of outcomes need not match the whole.

| SMILES | Rango dissoc inh | GLA inh pH 4.5 | miR-21 reporter | Rango complex inh |
| --- | --- | --- | --- | --- |
| Cc1ccc(NCc2nc3ccccc3n2CCOc2ccccc2)cc1 | -4.9% | 2.7 | -3.1%&-43.8% | -0.5% |
| COc1ccc(-n2c(-c3cnccn3)n[nH]c2=S)cc1 | 6.3% | 8.6 | -4.0% | 3.8% |
| CC(C)CC(CCc1ccccc1)OS(N)(=O)=O (stereo not drawn) | 13.9% | / | -0.1% | 3.0% |
| C=CCn1c(SCC(=O)NC(N)=O)nnc1-c1cc2c(s1)CCC(CC)C2 (stereo not drawn) | ? | 7.0 | -17.8% | 6.2% |
| CN(C)c1ccc(-n2cccc2/C=C/[N+](=O)[O-])cc1 | -7.8% | 3.7 | ? | 0.1% |
| Cc1ccc(C(=O)C(C)OC(=O)C2CCN(c3ccc(C(F)(F)F)cn3)CC2)cc1 (stereo not drawn) | 14.1% | / | / | ? |
| O=C(Nc1cccc(S(=O)(=O)N2CCCC2)c1)c1ccco1 | 10.0% | / | / | 5.3% |
| O=C(O)CCc1ccc(-c2cccs2)n1NC(=O)c1ccc(Cl)cc1 | 0.6% | 5.4 | -4.9% | ? |
| COc1ccccc1N1CCN(/N=C/c2ccc(O)c(O)c2)CC1 | -11.6% | 6.5 | -50.8% | 2.0% |
| Cc1c(OCC(=O)NCC(O)c2ccccc2)ccc2c(-c3ccccc3)cc(=O)oc12 (stereo not drawn) | -1.5% | / | -6.1% | 1.7% |
| O=C(N/C(=C/c1ccc(Br)cc1)C(=O)N1CCCC1)c1ccccc1F | -9.2% | 0.3 | 1.5% | 0.2% |
| O=C(CCCn1c(=O)[nH]c2ccccc2c1=O)N1CCN(c2ccccn2)CC1 | -4.7% | 4.6 | -10.2% | 0.4% |
| Cc1nnc(N)s1 | -9.7% | 1.8 | -0.1% | -0.9% |
| O=C(O)C1=NOC(CNc2ncc(C(F)(F)F)cc2Cl)C1 (stereo not drawn) | -17.5% | 6.1 | -1.9% | -2.6% |
| Cc1ccnc(N/C=C/C(=O)c2ccc(Br)cc2)c1 | -21.7% | / | -59.1% | ? |
| Cc1ccc2c(c1)N(C(=O)CCC(=O)NCC(C)c1ccccc1)CC(C)O2 (stereo not drawn) | 3.0% | / | 8.5% | -1.9% |
| CCc1nc2ccccc2c(C(=O)Oc2ccc(C(=O)OC)cc2)c1C | 5.6% | 1.2 | -14.7% | -1.0% |
| O=C(N/C(=C/c1cccc([N+](=O)[O-])c1)C(=O)N1CCCC1)c1ccccc1 | 12.8% | / | -5.6% | -1.4% |
| N#CC1(N2CCN(C(=O)c3ccccc3)CC2)CCCCC1 | -3.1% | / | -0.4% | 0.1% |
| COc1cc(C(=O)Oc2c(OC)cc(C(=S)N3CCOCC3)cc2OC)cc(OC)c1OC | 3.6% | / | -0.3% | 1.3% |
| CN(C(=O)COC(=O)c1cccc(S(=O)(=O)N(C)c2ccccc2)c1)C1CCCCC1 | -20.2% | / | / | -1.3% |
| Cn1c(=O)c2c(nc(N/N=C/c3ccncc3)n2Cc2ccccc2)n(C)c1=O | 23.3% | 0.0 | 0.5% | -2.2% |
| O=C(OCC1OC(Oc2ccc(O)cc2)C(O)C(O)C1O)c1ccccc1 (stereo not drawn) | 6.8% | / | / | 0.7% |
| Cc1nc(C)c(C)nc1C | / | -15.9 | -1.3% | / |
| CSCCC(NC(=O)c1ccccc1Br)C(=O)NC(C)CCc1ccccc1 (stereo not drawn) | 10.6% | / | -3.5% | 3.9% |
| CN(C)c1ncc(S(=O)(=O)c2ccccc2)c(N)n1 | 3.3% | 5.6 | 0.0% | 0.2% |
| Cc1ccc(C(=O)N2CCN(S(=O)(=O)c3sc(C(=O)O)c(C)c3C(=O)O)CC2)s1 | -6.3% | / | / | -1.4% |
| COc1ccc(N(C)C(=O)c2cc3c(s2)-c2ccc(Cl)cc2S(=O)(=O)C3)c(OC)c1 | -9.6% | / | 0.9% | -2.4% |
| Cc1nc(=O)c(-c2ccccc2)c(C)n1Cc1ccccc1 | 12.6% | 1.3 | 1.4% | -6.1% |
| CCCc1cc(=O)[nH]c(SC/C=C/c2ccccc2)n1 | -5.2% | / | / | 4.8% |
| CC(=O)COc1ccc2c(c1C)O/C(=C\c1ccco1)C2=O | ? | / | -70.5% | ? |
| C=CCNc1nc(Nc2ccc(OC)cc2OC)nc(OCC)n1 | -12.6% | -2.5 | -3.6% | 3.6% |
| CCOC(=O)C(NC(C)=O)(Nc1ccc(S(=O)(=O)Nc2nccs2)cc1)C(F)(F)F (stereo not drawn) | -1.6% | 0.4 | -3.4% | -0.2% |
| CC(C)COC(=O)c1ccc2c(c1O)C(=O)c1ccccc1C2=O | 6.9% | 7.0 | -40.0% | -0.2% |
| CCOc1ccccc1NC(=O)CN(c1ccc(OC)cc1)S(=O)(=O)c1c(C)noc1C | 0.8% | -13.1 | 20.0% | 1.3% |
| CC(C)(C)NC(=O)C(c1ccc(F)cc1)N(Cc1ccco1)C(=O)Cn1nnc(-c2cccs2)n1 (stereo not drawn) | 5.1% | -6.7 | -2.6% | -1.0% |
| COc1cc2c(cc1OC)CN(Cc1cc(=O)n3c(-c4ccccc4)csc3n1)CC2 | ? | -8.7 | -0.6% | ? |
| CC(C)CC1NC(=O)N(CC(=O)N2CCN(S(=O)(=O)c3ccc4ccccc4c3)CC2)C1=O (stereo not drawn) | 0.7% | -6.9 | 0.6% | 0.0% |
| CCN1CCN(c2ccc(S(=O)(=O)N(CC)CC)cc2[N+](=O)[O-])CC1 | 2.9% | 4.4 | -12.4% | 1.3% |
| Cc1ccccc1N=Cc1c(O)n(-c2nccs2)c(=O)c2ccccc12 | ? | -19.2 | -3.8% | ? |

Overlap with the part before: 3 compounds; new compounds follow.
| SMILES | Rango dissoc inh | GLA inh pH 4.5 | miR-21 reporter | Rango complex inh |
| --- | --- | --- | --- | --- |
| CC(C)CC1NC(=O)N(CC(=O)N2CCN(S(=O)(=O)c3ccc4ccccc4c3)CC2)C1=O (stereo not drawn) | 0.7% | -6.9 | 0.6% | 0.0% |
| CCN1CCN(c2ccc(S(=O)(=O)N(CC)CC)cc2[N+](=O)[O-])CC1 | 2.9% | 4.4 | -12.4% | 1.3% |
| Cc1ccccc1N=Cc1c(O)n(-c2nccs2)c(=O)c2ccccc12 | ? | -19.2 | -3.8% | ? |
| CC(C)(O)CN(C(=O)C(c1ccccc1)c1ccccc1)C1CCCCC1 | 6.9% | / | / | -1.0% |
| C=CCn1c(SCC(=O)N2CCCC2)nc2scc(-c3cccs3)c2c1=O | 0.4% | 9.8 | -5.3% | -4.0% |
| COc1ccc(S(=O)(=O)N(C)C[C@H]2Oc3ccc(NS(=O)(=O)c4c(C)noc4C)cc3C(=O)N([C@H](C)CO)C[C@@H]2C)cc1 | 4.4% | / | / | 3.2% |
| Cc1ccc(C(=O)N2CCCC(Nc3ccc(F)cc3)C2)cc1C (stereo not drawn) | -0.6% | / | -1.2% | 0.9% |
| COc1ccc(C(=O)NCCSCc2ccc(C)cc2)cc1 | 9.0% | 7.8 | -1.2% | 3.4% |
| Cc1ccccc1S(=O)(=O)N1C[C@H]2CON(C)[C@H]2C[C@H]1c1cccc(-c2ccc(C#N)cc2)c1 | -2.5% | / | / | -5.2% |
| CCc1ccccc1NC(=O)CN(c1ccc(OC)cc1OC)S(=O)(=O)c1ccccc1[N+](=O)[O-] | -2.4% | -10.5 | -1.6% | 1.7% |
| CC(C)CNC(=O)c1ccc2c(c1)C(=O)N(C1CCCCC1)C2=O | 6.5% | / | -1.7% | 1.7% |
| Cc1ccc(OC(=O)CCS(=O)(=O)c2ccc(C)cc2)cc1 | 21.8% | / | -0.2% | -0.7% |
| O=C(Cc1ccc(F)cc1)Nc1ccc(Cl)cn1 | -0.1% | / | -38.6% | 1.1% |
| O=C1CCC(C(=O)N(c2ccccc2)C2(C(=O)NC3CCCCC3)CCCCC2)N1 (stereo not drawn) | 4.7% | -4.5 | 0.8% | 2.5% |
| COc1ccc(-c2[nH]ncc2CN(C)Cc2cnccn2)c(OC)c1 | 0.3% | -6.0 | 1.6% | -3.1% |
| N#Cc1ccc(OCC(=O)Nc2nc(-c3ccncc3)cs2)cc1 | -8.8% | / | / | -4.0% |
| O=C(CCNC(=O)c1ccccc1)Nc1ccc(F)c(Cl)c1 | -5.4% | -5.2 | -4.7% | 0.8% |
| COc1ccc(C)cc1NC(=O)CSc1ccc(Cl)cc1 | 30.5% | -14.0 | -7.2% | 4.1% |
| O=C1CN(C(=O)COc2ccc(Br)cc2Br)c2ccccc2N1 | 8.2% | -0.6 | -17.3% | 0.8% |
| CC(=O)Oc1c(Cl)c(N2CCOCC2)c(OC(C)=O)c2ccccc12 | -5.8% | -4.6 | -0.1% | 0.5% |
| O=C(Cc1ccccc1)NCc1n[nH]c(=S)n1-c1ccc(Br)cc1 | -0.3% | 2.4 | -6.3% | 1.1% |
| Cc1ccc(NC(=O)c2ccc(OC(=O)c3ccco3)cc2)cc1 | -2.3% | 0.8 | -46.0% | 2.4% |
| O=C(c1cc(S(=O)(=O)N2CCOCC2)ccc1F)N1CCN(Cc2ccccc2)CC1 | 5.2% | -4.6 | -1.4% | -7.4% |
| COc1ccc(CNC(=O)C[C@H]2C(=O)N(Cc3ccccc3)C[C@@H]2Cc2ccccc2)cc1 | 22.0% | / | 6.1% | 0.7% |
| S=C1SCN(CC2CC2)CN1CC1CC1 | 19.1% | 5.4 | 11.5% | -1.0% |
| COc1ccc(S(=O)(=O)N2CCC(C(=O)NCC3CCCO3)CC2)cc1Cl (stereo not drawn) | 13.6% | / | -0.4% | 1.0% |
| CC(=O)c1ccc(NC(=O)N[C@@H](Cc2ccccc2)C(=O)O)cc1 | -12.7% | -20.0 | -1.5% | -0.4% |
| COc1ccc(C2/C=C\CN(C(=O)Nc3ccccc3)CC(=O)N2Cc2ccc(F)cc2)cc1 (stereo not drawn) | 4.5% | 0.9 | 4.6% | -4.5% |
| Cc1ccc(NC(=O)CSc2ccc3c(c2)OCCO3)c(O)c1 | -6.1% | / | 8.2% | 1.4% |
| Cc1nn(Cc2ccc(F)cc2)c(C)c1NC(=O)c1cnn2c1NC(c1ccccc1)CC2C(F)(F)F (stereo not drawn) | 0.1% | -17.0 | 13.0% | -1.5% |
| CCOC(=O)N1CCC(NC(=O)c2cc(C(=O)NCC(OC)OC)ccc2CO)CC1 | -5.1% | -7.7 | 0.0% | -0.1% |
| Cc1cc2nc(C3CCCN(C(=S)Nc4ccccc4C)C3)[nH]c2cc1C (stereo not drawn) | 8.7% | 7.9 | 16.5% | 0.9% |
| Cc1ccsc1C1C(C#N)=C(N)Oc2n[nH]c(C)c21 (stereo not drawn) | -20.7% | -19.2 | 6.9% | 1.6% |
| Nc1nonc1C(=O)N/N=C/c1ccc(-c2ccc(Cl)c(C(=O)O)c2)o1 | 14.9% | -15.8 | 2.9% | 1.1% |
| COc1ccc(Br)cc1CN1CCN(C(=O)c2ccc(F)cc2)CC1 | 2.2% | 0.9 | -5.1% | -0.9% |
| CCCCN(CC)C(=O)CSc1nc2c(sc(=S)n2-c2ccc(OCC)cc2)c(=O)[nH]1 | 11.6% | 2.1 | 0.4% | 4.9% |
| CCOc1cc(NC(=S)NCCCN2CCOCC2)c(OCC)cc1NC(=O)c1ccccc1C | -0.4% | 13.2 | -1.9% | -4.7% |
| O=[N+]([O-])c1ccc(N2CCN(c3ccccc3)CC2)nc1 | 9.4% | / | -0.6% | 0.7% |
| Cn1c(N)c(C(=O)Nc2ccccc2)c(=O)[nH]c1=O | -2.7% | / | / | 0.4% |
| Cc1cccc(N(C(=O)c2snc(C(N)=O)c2N)C(C(=O)NCC2CCCO2)c2cccs2)c1 (stereo not drawn) | 1.6% | -3.8 | -4.8% | ? |
| CCOC(=O)CN1C(=O)N[C@@H](c2cccc(F)c2)C(C(C)=O)=C1C | -18.5% | 6.9 | / | -3.5% |
| CC(=O)N1CCc2c(sc(NC(=O)CS(=O)(=O)c3ccc(F)cc3)c2C#N)C1 | 5.8% | / | / | -0.9% |
